CtBP-E1A blk = inhibitors of CtBP/E1A interaction. 340,000 tested, 0.49% active. AlphaScreen GST-E1A/His-CtBP binding, 1536-well; hits give low values; control for the full effect not named in the record. activity change, % (concentration not given with the values); in the data active means activity change below about -65%; inconclusive means about -30% to -65%; inactive means above about -30%; also: % is scaled to controls: 0 for no effect and ±100 for the full control effect
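GST-E1A and His-tagged CtBP (125 nM each as 5X stock) were preincubated with pin-transferred compound for 2 h at 37 °C in the dark, then glutathione donor and nickel acceptor beads were added for 1 h before AlphaScreen reading.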
D2 ag = activates the human D2 dopamine receptor; AID 624465; DiscoveRx PathHunter D2 beta-arrestin, luminescence, 90 min; 100% = 57 uM dopamine signal; activation, % (test concentration not listed); 360,000 tested, 0.084% active; in the data active = activation above about 40%; inconclusive = about 15% to 40%; inactive = below about 15%; also: compound concentration not given in the record; the text of the record calls up to 30% inactive
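Agonist mode: compounds alone added to overnight-plated D2 PathHunter cells for 90 min at 37 C, with 57 uM final dopamine (EC100) defining full response. Beta-arrestin recruitment detected by chemiluminescent reagent, read after 1 h at ambient temperature.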
D2 PAM = potentiates the human D2 dopamine receptor allosterically; potentiation, % (no concentration beside the values); 360,000 tested, 0.23% active; DiscoveRx D2 beta-arrestin cells, luminescence, 90 min; 100% = 57 uM dopamine signal; P14416; active = potentiation of 50% or more; inconclusive = 30% to 50%; inactive = 30% or less;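 also: compound concentration not given in the record; tested on top of an EC20 dose of dopamine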
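PathHunter D2 cells, attached overnight at 37 deg C, received compound in DMSO plus dopamine at EC20 (50 nM final) for 90 min at 37 deg C. Beta-arrestin recruitment was read as luminescence after 1 h with detection reagent at ambient temperature.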
PINK1 expr mod = PINK1 expression modulation. PINK1 immunofluorescence, high-content cytometry, 24 h. Potency, µM (titrated, usually from 76.6 µM), for inactives: top-dose activation (PINK1 increase), usual class: activators. 410,000 tested, 0.2% active. AID 624263; active = well fitted activation curve with a large enough effect; inconclusive = small, poorly fitted or top-dose-only effect; inactive = flat fitted curve, though single readings scatter; cell line not stated here;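 also: potency is read from the fitted curve at half-maximal effect; % of control where 0% means no effect; nearly all actives have a fitted effect of over 65% in size; a mitochondrial uncoupler was the plate control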
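PINK1 protein level read as immunofluorescence by microplate cytometer in a fixed, stained stable cell line after 24 h exposure to five compound concentrations, with CCCP as control.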
Sfp PPTase inh = Sfp phosphopantetheinyl transferase inhibition; Q9F4F7; Biochemical Sfp PPTase activity, qHTS; Potency, µM, for the others: max response, negative = inhibition, most hits filed as inhibitors; 310,000 tested, 3.5% active; AID 1490; active = well fitted inhibition curve with a large enough effect; inconclusive = small, poorly fitted or top-dose-only effect, or another doubt; inactive = no such curve, though single readings can be large or run the other way;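 also: the enzyme is Sfp with the accession as filed and its product quenches rhodamine fluorescence; potency is read from the fitted curve at half-maximal effect; 0% = enzyme reaction without inhibitor and -100% = no enzyme wells; top concentration of the series not given in the record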
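Buffer: 50 mM Hepes-Na pH 7.6, 10 mM MgCl2, 0.01% Nonidet P-40, 0.01% BSA. Enzyme 15 nM, pre-exposed to compound 15 min; substrates then added and fluorescence change tracked over 30 min.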
Six1-Eya2 inh = inhibitors of human Six1/Eya2 interaction | activity change, % (no concentration beside the values) | AID 651725 | Q15475+O00167 | AlphaScreen GST-Six1/His-Eya2 binding, biochemical; hits give low values; control for the full effect not named in the record | 360,000 tested, 0.56% active; in the data active = activity change below about -65%; inconclusive = about -30% to -65%; inactive = above about -30%; also: % is scaled to controls: 0 for no effect and ±100 for the full control effect; compound concentration not given in the record
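GST-Six1 + His-Eya2 (5X stock: 250/500 nM); Tris pH 8.0, 300 mM NaCl, 0.05% BSA, 0.02% Tween 20; GSH donor/Ni acceptor beads; 1 h 37 °C dark; AlphaScreen readout.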
TRPV1 PAM = potentiators of human vanilloid receptor 1 (TRPV1); potentiation, % at 8.33 µM; AID 540277; 320,000 tested, 0.02% active; TRPV1-expressing cells, Fluo-8 calcium influx, capsaicin EC20 potentiation; host cell line not named in the record; control for the full effect not named in the record; Q8NER1; active means potentiation above 80%; inconclusive means 30% to 80%; inactive means below 30%; also: 0% is about no effect
Target sequence (Q8NER1 whole entry, looked up): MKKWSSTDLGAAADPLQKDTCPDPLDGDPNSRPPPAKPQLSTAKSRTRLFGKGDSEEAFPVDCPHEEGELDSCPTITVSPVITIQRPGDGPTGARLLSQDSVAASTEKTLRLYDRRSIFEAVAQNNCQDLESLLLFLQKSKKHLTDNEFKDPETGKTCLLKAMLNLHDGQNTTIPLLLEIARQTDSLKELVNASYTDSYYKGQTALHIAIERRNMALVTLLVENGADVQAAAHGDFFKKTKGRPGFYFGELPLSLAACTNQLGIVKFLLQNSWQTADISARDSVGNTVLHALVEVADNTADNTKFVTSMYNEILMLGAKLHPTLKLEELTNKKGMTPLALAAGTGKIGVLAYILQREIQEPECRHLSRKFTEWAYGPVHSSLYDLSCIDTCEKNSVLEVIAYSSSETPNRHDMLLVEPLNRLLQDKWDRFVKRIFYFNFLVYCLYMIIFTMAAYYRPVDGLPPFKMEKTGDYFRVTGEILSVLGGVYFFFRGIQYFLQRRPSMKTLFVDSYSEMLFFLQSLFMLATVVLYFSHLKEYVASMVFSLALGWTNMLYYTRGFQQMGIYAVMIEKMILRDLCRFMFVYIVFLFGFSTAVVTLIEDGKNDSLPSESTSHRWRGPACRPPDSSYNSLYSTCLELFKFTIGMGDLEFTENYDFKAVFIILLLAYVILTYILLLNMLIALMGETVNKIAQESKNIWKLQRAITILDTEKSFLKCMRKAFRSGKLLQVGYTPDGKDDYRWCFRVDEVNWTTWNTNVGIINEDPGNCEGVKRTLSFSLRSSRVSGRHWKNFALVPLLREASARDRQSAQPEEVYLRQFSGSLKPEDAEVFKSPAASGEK
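Cells expressing TRPV1 were dye-loaded with Fluo-8 and read kinetically: 10 s baseline, 3 min after compound (agonist portion), then 2 min after EC20 capsaicin (allosteric enhancer portion). Calcium-bound dye fluorescence at 480/520 nm.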
An asterisk follows results filed as active; ? = inconclusive; · = no result given; & = joins results of further samples; [ ] = remark or other dose. Some of the compounds tested, so the mix of outcomes need not match the whole.

SMILES	CtBP-E1A blk	D2 ag	D2 PAM	PINK1 expr mod	Sfp PPTase inh	Six1-Eya2 inh	TRPV1 PAM
C=CCCC1(CC(C)C)C(=O)NC(=S)NC1=O	11	-2.1	-10	-2.1%	·	7	·
CN(C)C(=O)OCc1n(C)cc[n+]1C	1	1.9	-13	0.3%	-5%	2	10
CN(C)c1cccc(CN2CCN(c3ccccc3)CC2)c1	?	6.0	-10	5.7%	·	?	·
O=C(Cn1ncc2c3ccccc3n(Cc3cccc(Cl)c3)c2c1=O)N1CCC2(CC1)OCCO2	-1	0.0	6	-0.3%	-2%	-6	19
CN(C)[C@@H]1C(=O)C(C(N)=O)=C(O)[C@@]2(O)C(=O)C3=C(O)c4c(O)ccc(Cl)c4[C@@](C)(O)C3C[C@@H]12 (some centres not stated)	-24	-3.5	-11	?	5%	-2	7
COc1ccc(CC(=O)Nc2ccc3c(C(F)(F)F)cc(=O)oc3c2)cc1OC	-3	-3.7	-26	-0.6%	-11%	-11	-18
COC(=O)C1=C(c2ccc(OC)c(OC)c2)C[C@@H]2CC[C@H]1N2C(=O)NCCNC(C)=O	4	-2.4	-4	2.5%	·	4	3
COC(=O)c1c(N)n(Cc2ccc(OC)cc2)c2nc3ccccc3nc12	-1	-5.6	-10	4.7%	-5%	0	3
COC(=O)C(O)(c1ccc(NC(=S)NC(=O)c2ccc(Cl)cc2Cl)c(C)c1)C(F)(F)F (configuration not stated)	-13	-14	-6	-1.5%	-27%	-13	0
CC12CN3CCN(CC(C3)/C1=N/NC(N)=O)C2	8	3.9	2	-0.1%	12%	12	·
CC(=O)C1CCC2(O)C3CCC4=CC(=O)CCC4(C)C3CCC12C (configuration not stated)	24	-0.8	3	-6.6%	·	-2	·
CCOP(=O)(OCC)Oc1cc(C)c(N(C)C)c(C)c1	8	-1.5	-5	6.4%	6%	16	-15
COC(=O)C1=C(c2ccc(F)cc2OCc2ccccc2)C[C@@H]2CC[C@H]1N2C(=O)NCc1cccc(C(F)(F)F)c1	-4	3.1	-6	3.1%	·	-3	-12
CC1CCC(NCC(O)c2ccccc2)CC1 (configuration not stated)	0	-3.3	1	14%[38.3 µM]	16%	6	5
O=C(C1CCCN(S(=O)(=O)c2cccc3nsnc23)C1)N1CCC2(CC1)OCCO2 (configuration not stated)	0	-7.6	-7	1.0%	-3%	-3	-15
C=CCn1c(O)c(C(C)=Nc2ccc(N(CC)CC)cc2)c(=O)[nH]c1=O	-13	-2.5	10	12%[38.3 µM]	-66%	-12	-17
Nc1ccccc1C(=O)OCc1ccc([N+](=O)[O-])cc1	-1	-3.8	1	0.4%	16%	-5	4
CC(=NCCCN1CCCCC1)c1c(O)n(Cc2ccccc2)c(=O)[nH]c1=O	-3	-6.2	-54	-1.0%	5%	-15	5
O=C(CCc1ccccc1)N1Cc2cc(N3CCOCC3)ccc2-n2nncc2C1	-22	-4.3	-8	-0.6%	·	37	·
CCCNC(=O)Cn1cnc2sc(C(=O)N3CCC4(CC3)OCCO4)c(C)c2c1=O	0	-0.1	-1	0.1%	29%	2	5
Cc1ccc(S(=O)(=O)NC(Cc2cnc[nH]2)C(=O)O)cc1 (configuration not stated)	0	0.8	-5	-0.5%	-6%	2	5
C/C(O)=C(\C#N)C(=O)Nc1cc(Br)ccc1Br	-2	-3.1	4	1.8%&0.7%	8%&28%	8	12
CC(C)(C)P(=O)(N1CCOCC1)N1CCOCC1	6	0.0	-4	-0.7%	12%	4	7
CN1CSC(=S)N(C)C1	-2	-6.4	-2	-3.4%	45µM*	6	12
COc1cc(/C=C2\C(=O)NC(=O)N(c3ccccc3)C2=O)cc(OC)c1OC	2	0.0	-4	-0.4%	?	6	-2
CC12CN3CCN(C1)CC(C)(C3)C2=NO	4	-0.6	-7	1.1%[38.3 µM]	8%	5	0
Cc1ccc(N2C(=O)NC(=O)/C(=C\c3cccn3C(C)(C)C)C2=O)cc1	·	9.5	-2	2.3%	15%	17	1
CC12C=CC(=O)CC1CCC1C2CCC2(C)C(O)C(O)CC12 (configuration not stated)	-1	-0.2	16	-0.8%	·	10	·
O=C(c1cccs1)c1cn(Cc2ccccc2Cl)c2ccccc12	9	0.0	-1	-2.7%	5%	-1	23
O=c1[nH]c2ccccc2n1C1CCN(C(c2ccccc2)c2nnnn2Cc2ccccc2)CC1 (configuration not stated)	-13	0.9	?	0.0%	·	-20	·

Part of the list above, reformatted.
Compound,CtBP-E1A blk,D2 ag,D2 PAM,PINK1 expr mod,Sfp PPTase inh,Six1-Eya2 inh,TRPV1 PAM
O=C(CCc1ccccc1)N1Cc2cc(N3CCOCC3)ccc2-n2nncc2C1,-22,-4.3,-8,-0.6%,·,37,·
CCCNC(=O)Cn1cnc2sc(C(=O)N3CCC4(CC3)OCCO4)c(C)c2c1=O,0,-0.1,-1,0.1%,29%,2,5
Cc1ccc(S(=O)(=O)NC(Cc2cnc[nH]2)C(=O)O)cc1 (configuration not stated),0,0.8,-5,-0.5%,-6%,2,5
C/C(O)=C(\C#N)C(=O)Nc1cc(Br)ccc1Br,-2,-3.1,4,1.8%&0.7%,8%&28%,8,12
CC(C)(C)P(=O)(N1CCOCC1)N1CCOCC1,6,0.0,-4,-0.7%,12%,4,7
CN1CSC(=S)N(C)C1,-2,-6.4,-2,-3.4%,45µM*,6,12
COc1cc(/C=C2\C(=O)NC(=O)N(c3ccccc3)C2=O)cc(OC)c1OC,2,0.0,-4,-0.4%,?,6,-2
CC12CN3CCN(C1)CC(C)(C3)C2=NO,4,-0.6,-7,1.1%[38.3 µM],8%,5,0
Cc1ccc(N2C(=O)NC(=O)/C(=C\c3cccn3C(C)(C)C)C2=O)cc1,·,9.5,-2,2.3%,15%,17,1
CC12C=CC(=O)CC1CCC1C2CCC2(C)C(O)C(O)CC12 (configuration not stated),-1,-0.2,16,-0.8%,·,10,·
O=C(c1cccs1)c1cn(Cc2ccccc2Cl)c2ccccc12,9,0.0,-1,-2.7%,5%,-1,23
O=c1[nH]c2ccccc2n1C1CCN(C(c2ccccc2)c2nnnn2Cc2ccccc2)CC1 (configuration not stated),-13,0.9,?,0.0%,·,-20,·

(cont.)
SMILES	CtBP-E1A blk	D2 ag	D2 PAM	PINK1 expr mod	Sfp PPTase inh	Six1-Eya2 inh	TRPV1 PAM
CCOC(=O)[C@]12Cc3ccsc3[C@H]1N(Cc1ccccc1)C(=O)c1ccccc12	-2	-2.1	-12	0.4%	·	-6	·
Cc1cc(/C=C2\C(=O)NC(=O)N(Cc3ccccc3)C2=O)c(C)n1-c1ccc(Cl)c(C(=O)O)c1	6	-1.1	-19	2.6%	-2%	?	28
O=C(CCCn1c(=O)[nH]c2cc(Cl)ccc2c1=O)N1CCC2(CC1)OCCO2	-2	-1.8	-6	-0.3%	-19%	16	-12
COC(=O)C1=C(c2cc3ccccc3o2)C[C@@H]2CC[C@H]1N2C(=O)N1CCCCC1	-4	-0.4	-15	5.0%	·	-5	·
CCOC(=O)CNC(=O)N1Cc2cc(-c3ccccc3)ccc2-n2nncc2C1	4	5.5	4	-0.2%	·	-3	·
CC(C)(C)c1ccc(C(=O)NC(=S)Nn2cnnc2)cc1	3	-2.9	25	3.6%	?	-3	-12
C=CCn1c(O)c(C(CC)=NCCN2CCN(C(=S)NC)CC2)c(=O)[nH]c1=O	-1	-1.5	-8	0.7%	15%	-2	4
CCCNC(=O)c1c(N)n(Cc2ccco2)c2nc3ccccc3nc12	3	-3.5	-16	-3.9%[38.3 µM]	?	-7	16
CCCCC/C(=N\O)c1c[nH]c2ccccc12	13	0.8	-3	13%[38.3 µM]	9%	-4	6
COc1ccccc1N1CCN(Cc2cnc(-c3ccccc3)[nH]2)CC1	-5	-3.0	-21	-0.7%	8%	-5	·
CC(C)n1c(=O)c(C=Nc2cccc([N+](=O)[O-])c2)c(O)n(CCc2ccccc2)c1=O	?	-7.0	-12	1.1%	-4%	-29	9
Cc1ccc(-c2cc(-c3ccccc3)cc(-c3ccccc3)[n+]2-c2ccccc2)cc1	-10	11	11	?	·	-4	-12
CCN(CC)c1ccc(N=Cc2c(O)[nH]c(=O)[nH]c2=O)cc1	·	-1.7	11	-1.1%	-2%	-2	-25
CN(C)c1ccc([N+](=O)[O-])c([N+](=O)[O-])c1	0	1.6	-8	0.5%	·	4	·
CN1CCN(c2ncnc3nc[nH]c23)CC1	9	-8.1	-4	1.0%	11%	-4	-5
Cc1cc(C(=O)OC(C)C(=O)Nc2ccccc2)c(C)n1C1CC1 (configuration not stated)	-2	-2.0	-14	1.7%	·	-10	·
CCOC(=O)C1C(OC(=O)c2ccccc2)CC2CCC1N2C (configuration not stated)	-2	-3.0	-14	-0.3%	·	8	·
COc1ccc2c(c1)c(CCN)c(C)n2Cc1ccccc1	?	-0.6	-18	-0.4%	-15%	?	2
O=C(O)c1ccc[nH]c1=S	-1	0.9	-2	-0.5%	8.9µM*	2	7
Cc1ccc(C(=O)NC2CC3CCC(C2)N3)cc1 (configuration not stated)	-9	1.9	-18	-0.5%	9%	0	3
COc1cc2c(cc1OC)-c1c(OC)c(OC)c(OC)c3ccnc(c13)C2=O	?	4.5	0	-0.8%	15%	?	-12
O=C(Nc1ccccc1)N1CC2CC(C1)c1cccc(=O)n1C2 (configuration not stated)	14	0.6	1	-0.5%	20%	2	5
CSC1=NP(=S)(SC)N2CCCC2=C1C#N (configuration not stated)	-1	-2.5	-10	-2.8%	12%	3	-2
N[C@H](CO)Cc1ccccc1	8	-0.2	-6	0.1%	·	2	·
COC(=O)C1=C(c2ccc(OCc3ccccc3)cc2)C[C@@H]2CC[C@H]1N2C(=O)NCc1ccccc1OC	-3	-12	0	0.4%	·	8	·
